# Compound activity deposited in PubChem BioAssay by ICCB-Longwood Screening Facility, Harvard Medical School.
# AID504770 = E. coli YBA685 growth inhibition, screen for V. cholerae RctB inhibitors; E. coli YBA685 rctB-dependent plasmid, OD600 growth, 3 h; stronger effect = lower value; z-score (no concentration beside the values); actives 0.27% (n = 130,000); AID 504770;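 active = z-score under -2 on both plates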;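 note: wells of about 30 µL received 100 nL stock; score is relative to mean and SD of the test wells; the first replicate is given; strong numbers were not always called active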
# CapD inh = blocks the Bacillus anthracis CapD enzyme; purified CapD enzyme, fluorescence intensity read-out; stronger effect = lower value; some hits fall short of the stated cut; z-score (concentration not given with the values); actives 0.23% (n = 140,000); AID 492967;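 active = z-score under -4 in either of two replicates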;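 note: stock transfer was 100 nL into about 40 µL; score is relative to mean and spread of the plate; one replicate is shown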
# * hit, by the source's call; i = inactive; . = not tested or not shown.
SMILES,AID504770,CapD inh
COc1ccc(C(=O)NNC(=O)OCC2C3CCC(C3)C2C)cc1 (stereo not drawn),.,-0.1
N#CCCn1ccc2ccccc21,1.9,.
CC(C)COP(C)(=O)C(N)=O (stereo not drawn),-0.2,.
Cc1ccc2nc(Cl)c3cc(C(=O)N=C4NC(=O)CN4C)sc3c2c1,0,0.445
CC(C)(O)C#Cc1ccc(C(=O)NCc2cccs2)s1,1.2,0.68
O=C(O)C(c1cccs1)c1cccs1,1.05,.
CCOC(=O)c1cc(-c2ccc(S(=O)(=O)N3CCCCC3C)s2)on1 (stereo not drawn),0.05,-0.24
CCOC(=O)c1sc2nc(C)nc(N3CCCC3)c2c1C,.,0.22
N#CC1(C#N)[C@H](c2ccc(Br)cc2)[C@@H](C(=O)c2ccccc2)N2c3ccccc3C=C[C@@H]21,.,5.59
N#Cc1c(-c2ccccc2)nc2n(c1=O)CCCS2,-0.85,-0.085
Cc1ccc(C2CCN(C(=S)NCC3CCCO3)C2)cc1 (stereo not drawn),-0.3,1.94
COc1cccc(CN(Cc2ccco2)S(=O)(=O)c2ccccc2)c1,-0.15,.
CC1=C(C(=O)NCCC(C)C)C2(CCN(S(=O)(=O)c3cccs3)CC2)OC1=O,1.25,0.395
CSc1cc(C)nc2ccccc12,.,-0.375
CCCCn1nnc2sc(-c3ccccc3)cc2c1=O,-0.75,3.72
O=c1[nH]c(CSc2ccccn2)nc2ccsc12,0.65,.
O=C1c2ccccc2S(=O)(=O)c2cc(C(=O)N3CCN(c4ccccc4)CC3)ccc21,2,.
CC(C)CCN1NC(C)(C)NC1=S,1.6,-0.105
O=C(CSc1nc2ccccc2c(=O)n1C1CCCC1)Nc1cccnc1Cl,0.05,.
CCOC(=O)C1=C(C)NC2=C(C(=O)CCC2)C1c1ccccc1 (stereo not drawn),-0.15,14.8
CC1N(C)c2cc(NC(=O)c3ccco3)ccc2C1(C)C (stereo not drawn),-0.35,-1.22
CN(CCO)C(=O)c1cc(-c2ccc(Cl)cc2)nc2ccccc12,-0.9,6.92
COC(=O)CCCNc1ccc(C(F)(F)F)cc1N,-0.8,1.71
O=C1C2C3C=CC(C3)C2C(=O)N1c1cccc(N2C(=O)C3C4C=CC(C4)C3C2=O)c1 (stereo not drawn),0.15,.
Cc1oc2ncn(C)c(=O)c2c1C(=O)OCc1ccc(C#N)cc1,0.55,.
COc1ccccc1C1C(C(=O)Nc2ccccc2F)=C(C)NC2=C1C(=O)CCC2 (stereo not drawn),-0.25,1.09
Cc1ccc(C(=O)c2cc3c(cc2Br)OCCO3)cc1,.,-0.13
Cc1nc(-c2ccc3ccccc3n2)cn1Cc1ccc(F)cc1,-0.45,61.4
COc1cc(-c2nnc(SCc3c(F)cccc3Cl)o2)cc(OC)c1OC,.,-0.135
Cc1cc(NC(=O)c2cccnc2)ccc1NC(=O)c1ccco1,2.3,.
CC(C)(CO)NCc1ccc(F)cc1,-0.45,-0.31
COc1ccccc1/C=C/C(=O)N1CCC(C(N)=O)CC1,-0.8,.
COc1ccc(NC(=O)c2cc3n(n2)C(C(F)(F)F)CC(c2ccc(OC)c(OC)c2)N3)cc1Cl (stereo not drawn),.,-0.205
CCn1c(COc2ccc(Cl)c3cccnc23)nnc1SC,2.6,10.6
Cc1ccc2ccccc2c1COC(=O)c1nonc1N,-0.25,0.12
C/C(N)=N/S(=O)(=O)c1cc(Cl)c(Oc2ccc([N+](=O)[O-])cc2)c(Cl)c1,.,-1.15
CCCn1c(C)cc(C(=O)CSc2nc(O)cc(=O)n2C2CCCC2)c1C,-1,.
CC1(C)CC2(CCO1)NNC(=S)NN2,-0.55,.
O=S(=O)(c1ccc(F)cc1)N1C=CC(C(F)(F)F)=NCC1,0.5,-1.1
O=C(Nc1ccc2c(c1)OCCO2)c1cccc(-n2cnnc2)c1,-0.65,-1.15
O=C(CCCC1CCCCC1)Nc1ccncc1,-0.05,.
O=C(Cn1c(=O)oc2cc(S(=O)(=O)NCc3ccccc3)ccc21)Nc1ccc(F)cc1,2.15,21.8
CCc1ccc(OCC(=O)Nc2ccc3c(c2)COC3=O)cc1,-0.2,0.89
CCOC(=O)N1CCN(C(=O)C2COc3ccccc3O2)CC1 (stereo not drawn),-0.9,0.41
CC(=O)c1ccc(N2CCN(c3ncnc4c3cnn4-c3ccc(C)cc3C)CC2)cc1,.,-0.21
Cn1nc(-c2ccc(C(N)=O)cc2)c2ccccc2c1=O,-0.15,0.77
O=C(CCSCc1cnn(-c2ccccc2)c1-n1cccc1)NC1CCCC1,-0.7,-0.985
c1ccc(OCCn2c(CN3CCCCC3)nc3ccccc32)cc1,-3.7,0.61
O=C(O)CC(NS(=O)(=O)c1ccc(Cl)cc1)c1ccco1 (stereo not drawn),-0.7,0.43
Cc1cc(C)n(CCOc2ccc(Br)cc2)n1,-0.2,-0.28
COC1CCCCC1Nc1ccccc1 (stereo not drawn),0.65,0.06
CC(C)(C)c1cc(Cl)cc(C(=O)c2ccccc2)c1,0.1,0.3
COc1ccc(-c2[nH]ncc2-c2ccccc2)c(O)c1C,0.7,0.085
O=C(OCC(=O)N1CCCCC1)c1ccccc1OCc1ccc(F)cc1,-1,-0.73
COC(CNC(=O)c1ccc(N2CCCC2=O)cc1)OC,-1,0.195
O=C1COc2ccc(C(=O)COC(=O)c3cccs3)cc2N1,-0.5,.
COC(=O)CSc1nnc(CNc2ccc(Cl)cc2)n1Cc1ccccc1,-0.75,.
Cc1ccc(C(=O)Nc2cnc3ccccn3c2=O)cc1,-0.75,4.97
CN(C)CCCNS(=O)(=O)c1cc(Cl)c(Cl)cc1Cl,-0.2,-0.245
CC(C)(O)C(=O)/C=C/c1ccccc1,-0.55,-0.61

# (further entries)
SMILES,AID504770,CapD inh
CC(C)OC(=O)COc1ccc2c(=O)c(-c3ccc(Cl)cc3)coc2c1,1.2,-0.3
OC(Cc1cccnc1)(c1ccccc1)c1ccccc1,0.05,0.525
CN(C)CCCSc1nc2ccccc2s1,-0.25,-0.06
O=C(Nc1ccc(CSc2cccc(C(F)(F)F)c2)cc1)c1cccs1,.,-0.125
Cc1ccc(CN(Cc2ccco2)C(=S)NCC(=O)O)cc1,0,0.085
OCCN(Cc1ccccc1)Cc1ccccc1O,1.6,.
Cc1noc(C)c1S(=O)(=O)N(CC(=O)N1CCCCCC1)c1ccc(C(C)C)cc1,2,-0.235
O=C(OCC(=O)N1CCCc2ccccc21)c1ccccc1O,-2.4,.
O=C(O)c1ccccc1Cc1nc2c(oc3ccccc32)c(=O)[nH]1,0.55,.
COc1cccc(/C=C2\CC/C(=C\c3cccc(OC)c3)C2=O)c1,-0.75,-1.3
CC1CCc2cc(F)ccc2N1C(=O)c1ccc(N2CC3CC(C2)c2cccc(=O)n2C3)c(NC(=O)c2cccnc2)c1 (stereo not drawn),.,0.01
O=C(COc1ccccc1)n1nc(-c2ccccc2)nc1NCc1cccs1,-0.7,-0.075
CC1(C)CC(=O)C2=C(C1)NC1=C(C(=O)CC(C)(C)C1)C2c1ccccc1,.,70.9
COC(=O)C12CCCC(C(=O)O)(CCC1)C2,-0.35,-0.09
CCc1cc2c(=O)c(-c3nc4ccccc4s3)c(C(F)(F)F)oc2cc1O,-0.45,69.8
NC(Cc1ccccc1)c1nc2ccccc2[nH]1 (stereo not drawn),0.3,0.93
O=C(CCSCc1ccc(Cl)cc1)NC1CCCC1,1.05,.
Cc1ccccc1N1CCN(C2=NC(=O)/C(=C\c3cccs3)S2)CC1,-0.55,.
O=S(=O)(Oc1cc(Cl)cc(Cl)c1)c1ccc(Cl)cc1,.,2.2
O=C(Cc1ccc(S(=O)(=O)N2CCCC2)s1)N1CCN(Cc2ccccc2)CC1,1.1,.
O=C(CO)n1c2ccccc2c2ccccc21,-0.15,30.6
CS(=O)(=O)c1ccc(-c2csc(-c3cccs3)n2)cc1,0.1,.
CC(C(=O)NCC1(c2ccccc2)CCCC1)N1CCOCC1 (stereo not drawn),.,-0.22
C=CCc1ccccc1OCCOc1ccc(/C=C2/C(=N)N3C(c4ccccc4)=CSC3=NC2=O)cc1OC,.,-0.275

# Looked up by structure from the entries so far, 4 records:
SMILES,AID504770,CapD inh
C=CCc1ccccc1OCCOc1ccc(/C=C2/C(=N)N3C(c4ccccc4)=CSC3=NC2=O)cc1OC,.,-0.275
O=C(CCSCc1ccc(Cl)cc1)NC1CCCC1,1.05,.
CCc1cc2c(=O)c(-c3nc4ccccc4s3)c(C(F)(F)F)oc2cc1O,-0.45,69.8
NC(Cc1ccccc1)c1nc2ccccc2[nH]1 (stereo not drawn),0.3,0.93

# Other records follow:
SMILES,AID504770,CapD inh
COc1ccc2nc(C)cc(SCC(=O)c3ccc(Cl)cc3)c2c1,-0.7,0.285
Cn1c(=O)c2c(nc(NCCO)n2Cc2ccc(F)cc2)n(C)c1=O,-0.95,-0.635
c1ccc(-c2nc(-c3ccc(-c4csnn4)cc3)no2)cc1,-0.1,0.105
CCOC(=O)c1ccc(NC(=O)CCC(=O)N2CC(C)Oc3ccc(C)cc32)cc1 (stereo not drawn),0.15,0.315
O=C(O)COCC(=O)N1CC(=O)Nc2ccccc21,-0.6,.
OCn1nc(-c2ccc(Cl)cc2Cl)oc1=S,-0.45,4.79
Cc1cc2c3c(c1)C1C=CCC1C(c1cccc([N+](=O)[O-])c1)N3CC1CC=CC21 (stereo not drawn),.,-0.115
CCC(=O)N1c2ccc(Cl)cc2C2C=CCC2C1c1cccc2ccccc12 (stereo not drawn),.,0.105
NC1=NC(=O)C(CC(=O)Nc2ccccc2SC(F)(F)F)S1 (stereo not drawn),-1.3,-0.2
COc1ccc(-c2noc(COC(=O)/C(=C/c3ccccc3OC)c3ccccc3)n2)c(OC)c1,-0.1,.
S=c1nc(-c2cccc(Br)c2)[nH][nH]1,-0.4,2.16
CCOC(=O)N1CCN(C(=O)COC(=O)c2cccc(S(C)(=O)=O)c2)CC1,1.5,.
O=C(NNC(=O)C1CCN(c2ccc(C(F)(F)F)cn2)CC1)c1ccc(OC(F)(F)F)cc1,.,0.24
CCOC(=O)c1c[nH]c2c(Cl)cc(Br)cc2c1=O,.,-0.05
CCN1CCN(C(=O)COc2cccc(Br)c2)CC1,-0.6,-0.27
Cc1ccc(/C=C/C(=O)O)cc1S(=O)(=O)NCCO,1.4,-0.355
O=C(Nc1ccc2nc(N3CCOCC3)sc2c1)c1cncn1-c1ccccc1,-0.15,.
CCOc1ccc(-c2cc(CCCC(=O)Nc3cc(Cl)ccc3O)no2)cc1,0.8,-0.16
O=C(NCN1C(=O)C2C3C=CC(C3)C2C1=O)Nc1cccnc1 (stereo not drawn),0.7,-0.565
CCOc1ccccc1NC(=O)C1=C(C)NC(=O)NC1c1ccccc1OC (stereo not drawn),.,-0.425
O=C(NCCc1c[nH]c2ccccc12)c1ccco1,-0.75,i
COC(=O)c1cc(Nc2ncnc3c2nc2n3CCCCC2)cc(C(=O)OC)c1,0,4.71
CCN(C(=O)c1c(N)cnn1C)c1ccccc1,-0.6,.
O=C(Nc1ccc(-c2noc(CCc3ccccc3)n2)cc1)c1cccnc1,-0.05,-0.225
CCOC(=O)C1=C(CC)Nc2ccccc2N=C1NC(=O)C1CCCO1 (stereo not drawn),-0.9,.
CN1CC(c2nc3ccccc3[nH]2)CC1=O (stereo not drawn),0.1,.
COc1cccc(CCOC(=O)NCc2ccc(S(N)(=O)=O)cc2)c1,.,0.415
Cc1ccc(NC(=O)CC#N)cc1,-0.1,0.495
Cc1cccc(N=CC23c4ccccc4C(c4ccccc42)C2C(=O)N(c4ccccc4Cl)C(=O)C23)c1 (stereo not drawn),.,0.04
COc1ccc(S(=O)(=O)N2CCN(C(=O)c3ccco3)CC2)cc1OC,1.85,-1.08
COc1cc(OC)cc(C(=O)Nc2cccc(-c3nc4cc(C)cc(C)c4o3)c2C)c1,-0.5,0.405
CCC1CCCCN1C(=O)CSc1nc2c(c(=O)[nH]1)CCC2 (stereo not drawn),-0.4,0.425
CC1CC(=O)CCN1C(=O)c1ccccc1 (stereo not drawn),-0.05,-0.16
CCCc1cc(=O)[nH]c(SCc2nc(N)nc(Nc3ccccc3C)n2)n1,-0.2,.
COC(=O)Cn1cnc2c(cnn2-c2ccccc2)c1=O,-0.35,-0.06
CCN(CC)S(=O)(=O)c1cc(C(=O)Oc2cccc3cccnc23)ccc1Br,.,-0.235
FC(F)(F)c1ccc(Cn2c3ccccc3c3nc4ccccc4nc32)cc1,.,0.375
O=C1/C(=C/c2ccc3ccccc3c2)COc2ccccc21,1.25,-1.58
NNC(=S)Nc1ccc2c(c1)OCO2,0.25,0.1
COc1ccc(/C=C2/c3ccc(C)cc3-c3nc4ccccc4cc32)cc1OC,.,-0.23
CC(C)(C)S(=O)(=O)c1cnc(-c2ccccn2)nc1N,.,-0.575
CC(=O)N(c1ccccc1)c1nc(COC(=O)C2CCC2)cs1,-0.65,.

# Taken from the entries so far for reference:
SMILES,AID504770,CapD inh
CC1CC(=O)CCN1C(=O)c1ccccc1 (stereo not drawn),-0.05,-0.16
CCCc1cc(=O)[nH]c(SCc2nc(N)nc(Nc3ccccc3C)n2)n1,-0.2,.
COC(=O)Cn1cnc2c(cnn2-c2ccccc2)c1=O,-0.35,-0.06
CCN(CC)S(=O)(=O)c1cc(C(=O)Oc2cccc3cccnc23)ccc1Br,.,-0.235
FC(F)(F)c1ccc(Cn2c3ccccc3c3nc4ccccc4nc32)cc1,.,0.375
O=C1/C(=C/c2ccc3ccccc3c2)COc2ccccc21,1.25,-1.58
NNC(=S)Nc1ccc2c(c1)OCO2,0.25,0.1
